BJeLR viability: BJeLR cell viability loss, primary screen, luminescence, CellTiterGlo ATP | BJeLR fibroblasts viability, 48 h; HRASV12, hTERT and SV40 LT/ST transformed | 30,000 tested, 0.64% active | viability loss activity score, % (test concentration not listed) | AID 2275, 2010; in the data active = viability loss activity score above about 50%; about a fifth of its hits are not listed in these tables;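 note: higher score means fewer live cells and less ATP luminescence; stock transfer was 50 or 100 nL into about 30 µL; 0% = vehicle wells and 100% = a reference killing control; one replicate is shown; the record names a cut of 85%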
A1 inhib: inducers of caspase activity in MEF A1-2A-BIM cells, primary screen, A1 inhibitor project, cell-based, CaspaseGlo luminescence. caspase-Glo luminescence, 3 h; percent of clofoctol signal, DMSO as zero. 21,000 tested, 0.51% active. caspase activation, % (concentration not given with the values);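 active = most replicate scores above 10, or exactly half above 10 with mean activity above 10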;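 note: effector caspase 3 and 7 activity cleaving a DEVD luciferin substrate; 50 nL library stock added to about 30 µL; numbers are from one replicate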
Numbers without * were called inactive; / = no result given.

Sample of the layout, 3 compounds:
SMILES | BJeLR viability | A1 inhib
CC(CC(=O)NC1CCCCCC1)CC1=NS(=O)(=O)c2ccccc2N1 (stereo not given) | -3.6 | 0.0
O=C(c1cc(-c2ccc(F)cc2)n[nH]1)N1CCN(c2cccc(Cl)c2)CC1 | -3.5 | 0.7
Cc1noc(C)c1NC(=O)Nc1ccc2c(c1)C(=O)N([C@H](C)CO)C[C@@H](C)[C@H](CN(C)S(=O)(=O)c1ccc(Cl)cc1)O2 | 1.5 | 0.2

This part in full (from the top)
SMILES | BJeLR viability | A1 inhib
CC(CC(=O)NC1CCCCCC1)CC1=NS(=O)(=O)c2ccccc2N1 (stereo not given) | -3.6 | 0.0
O=C(c1cc(-c2ccc(F)cc2)n[nH]1)N1CCN(c2cccc(Cl)c2)CC1 | -3.5 | 0.7
Cc1noc(C)c1NC(=O)Nc1ccc2c(c1)C(=O)N([C@H](C)CO)C[C@@H](C)[C@H](CN(C)S(=O)(=O)c1ccc(Cl)cc1)O2 | 1.5 | 0.2
CCOC(=O)c1ccc(CSc2n[nH]c(C)n2)o1 | -1.2 | -0.3
Cc1ccc(S(=O)(=O)N(C)C[C@H]2Oc3c(NC(=O)Nc4ccccc4)cccc3C(=O)N([C@@H](C)CO)C[C@H]2C)cc1 | -7.7 | /
COc1ccc(S(=O)(=O)Nc2ccc3c(c2)C(=O)N([C@@H](C)CO)C[C@@H](C)[C@H](CN(C)Cc2ccc4c(c2)OCO4)O3)cc1 | 4.1 | 0.1
CC(C)NC(=O)N(C)C[C@@H]1Oc2c(NC(=O)C3CC3)cccc2C(=O)N([C@@H](C)CO)C[C@@H]1C | 0.6 | /
C[C@@H]1CN([C@@H](C)CO)C(=O)c2cc(NC(=O)CCCCCC(=O)Nc3ccccc3N)ccc2O[C@@H]1CN(C)S(=O)(=O)c1ccccc1 | -8.9 | /
COc1ccc(CN(C)C[C@@H]2Oc3ccc(NC(=O)Cn4cnnn4)cc3C(=O)N([C@@H](C)CO)C[C@@H]2C)cc1 | -2.4 | -0.6
Cc1ccc(S(=O)(=O)Nc2ccc3c(c2)C(=O)N([C@H](C)CO)C[C@@H](C)[C@H](CN(C)S(=O)(=O)c2ccc(F)cc2)O3)cc1 | 1.9 | 0.6
CCOC(=O)C1=CN(c2ccc(C)cc2)C=C(C(=O)OCC)C1c1cccs1 | -4.5 | 0.0
Cc1noc(C)c1S(=O)(=O)Nc1ccc2c(c1)C(=O)N([C@@H](C)CO)C[C@@H](C)[C@@H](CN(C)S(=O)(=O)c1cn(C)cn1)O2 | -2.7 | -0.9
O=C(CC(SC1CCCCC1)C(=O)O)c1ccc(Br)cc1 (stereo not given) | -1.8 | 1.7
C[C@H]1CN([C@@H](C)CO)C(=O)c2cc(NC(=O)Nc3ccccc3)ccc2O[C@H]1CN(C)Cc1ccc(C(F)(F)F)cc1 | 2.5 | -0.3
CN1CCN(C(=S)NC(CC(=O)c2ccccc2)c2ccccc2)CC1 (stereo not given) | -0.7 | 1.0
CCN(CC)C(=O)Cn1cc(S(=O)(=O)CC(=O)Nc2ccccc2C(F)(F)F)c2ccccc21 | -3.5 | 1.7
O=C(O)CSc1c2c(nc3cc(C(=O)NCC4COc5ccccc5O4)ccc13)CCC2 (stereo not given) | -0.5 | 0.3
CC1(C)Cc2c(sc3ncn4nc(COc5ccc(Cl)cc5)nc4c23)C(C)(C)N1 | -3.0 | 0.3
O=C(O)CC(c1ccccc1)c1cc(Cl)ccc1O (stereo not given) | 3.7 | /
COc1ccc(S(=O)(=O)Nc2cccc3c2O[C@@H](CN(C)C(=O)NC2CCCCC2)[C@H](C)CN([C@H](C)CO)C3=O)cc1 | 3.2 | /
Cc1ccc(S(=O)(=O)N(C)C[C@H]2Oc3c(NS(=O)(=O)c4c(C)noc4C)cccc3C(=O)N([C@H](C)CO)C[C@H]2C)cc1 | 3.8 | /
OC(COc1ccc(-c2csnn2)cc1)CN1CCN(C(c2ccccc2)c2ccccc2)CC1 (stereo not given) | 0.3 | -0.2
COc1ccc(CN(C)C[C@@H]2Oc3ccc(NC(=O)C4CCCCC4)cc3C(=O)N([C@H](C)CO)C[C@H]2C)cc1 | 2.9 | -0.2
C=CCn1c(=N)n(CC(=O)c2ccc(-c3ccccc3)cc2)c2ccccc21 | 11.3 | 5.3
CC(C)Cc1ccc(C(C)C(=O)Nc2cccc(-c3cnco3)c2)cc1 (stereo not given) | 4.1 | /
COC(=O)c1c(C)oc2ccc(OCc3ccc(Br)cc3)cc12 | -3.3 | -1.9
O=C(Nc1ccccc1)N[C@H]1C[C@H](C(=O)O)Nc2cc(Cl)cc(Cl)c21 | -8.0 | 0.0
COc1ccc(NC(=O)Nc2ccc3c(c2)C(=O)N([C@@H](C)CO)C[C@@H](C)[C@H](CN(C)Cc2ccncc2)O3)cc1 | -5.4 | 0.4
CC(C(=O)O)N1C(=O)/C(=C/c2ccc(Cl)cc2)SC1=S (stereo not given) | -3.5 | 0.6
CCc1ccc(Nc2cc(C(=O)NCc3cccs3)c3ccccc3n2)cc1 | 0.3 | /
O=C(C1CC1)N1CCc2cc(S(=O)(=O)Nc3cccc(F)c3)ccc21 | 4.7 | /
O=S(=O)(c1ccccc1)N1CCCN(S(=O)(=O)c2ccccc2)CC1 | -0.4 | -0.4
C[C@H]1CN([C@@H](C)CO)C(=O)c2cccc(NC(=O)c3ccncc3)c2O[C@H]1CN(C)CC1CCCCC1 | 1.7 | /
COC(CNC(=O)Cn1nc(-c2ccccc2)c2cc(Cl)ccc21)OC | 1.4 | 0.4
C[C@@H]1CN([C@H](C)CO)C(=O)c2cccc(NS(=O)(=O)c3ccc(Cl)cc3)c2O[C@H]1CN(C)C(=O)Nc1cccc2ccccc12 | 0.8 | /
CCC(C)NC(=O)Cn1ncn2c(cc3sc(C)cc32)c1=O (stereo not given) | 13.7 | -0.3
CNC[C@@H]1Oc2ccc(NC(=O)C3CCCCC3)cc2C(=O)N([C@@H](C)CO)C[C@@H]1C | -0.9 | 0.0
Cc1noc(C)c1NC(=O)Nc1cccc2c1O[C@@H](CN(C)C(=O)Nc1ccc(C(F)(F)F)cc1)[C@@H](C)CN([C@@H](C)CO)C2=O | 5.1 | /
CNC[C@@H]1Oc2ccc(NS(=O)(=O)c3c(C)noc3C)cc2C(=O)N([C@@H](C)CO)C[C@@H]1C | 2.1 | 1.5
C[C@@H]1CN([C@@H](C)CO)C(=O)c2cc(NC(=O)Nc3cccc4ccccc34)ccc2O[C@H]1CN(C)Cc1ccc2c(c1)OCO2 | -0.5 | 1.0
CCOC(=O)N1CCC(NC(=O)c2cc(C)on2)CC1 | -0.8 | 0.6
C[C@@H]1CN([C@H](C)CO)C(=O)c2cc(NC(=O)Nc3ccc(F)cc3)ccc2O[C@@H]1CN(C)S(=O)(=O)c1ccccc1 | 3.7 | 0.0
CN(C)C=Nc1ccc(Oc2cncc(Cl)c2)nc1 | -3.7 | 0.2
O=C(Oc1ccc2ccc(=O)oc2c1)c1ccccc1 | -0.8 | -0.2
CCCC(=O)Nc1ccc(-c2cn3ccccc3n2)cc1 | -0.8 | -1.9
Cc1cc(C(=O)Nc2cccc3c2O[C@@H](CN(C)C(=O)Nc2ccc(C(F)(F)F)cc2)[C@H](C)CN([C@H](C)CO)C3=O)n(C)n1 | 1.5 | /
C=CCn1c(COc2ccccc2)n[nH]c1=S | 0.4 | -0.4
C[C@@H]1CN([C@H](C)CO)C(=O)c2cccc(NS(=O)(=O)c3cn(C)cn3)c2O[C@@H]1CN(C)Cc1ccc2c(c1)OCO2 | -6.2 | /
COc1ccc(CN(C)C[C@@H]2Oc3ccc(NC(=O)NC(C)C)cc3C(=O)N([C@@H](C)CO)C[C@@H]2C)cc1 | 1.0 | -0.5
CN(C)CC(O)Cn1c2ccc(Br)cc2c2cc(Br)ccc21 (stereo not given) | 3.6 | 4.5
O=C(Nc1ccccc1)Nc1ccc(C2SCCS2)cc1 | -6.2 | -6.3
O=C1C=CC(=O)c2c(O)c(Cl)c(Cl)c(O)c21 | 53.7* | -5.2
CCN1C(=O)CCC(C(=O)O)C1c1ccc(OC)cc1 (stereo not given) | 2.1 | 0.0
c1ccc2c(c1)CCCc1cc(NCCN3CCOCC3)nnc1-2 | -2.4 | -0.9
CCC(C)C(NC(=O)C(C)(C)NC(=O)C(C)(CC)NC(=O)C(N)Cc1c[nH]c2ccccc12)C(=O)NC(=O)CCC(NC(C)=O)C(=O)O (stereo not given) | 6.2 | -1.1
COc1ccc(S(=O)(=O)N(C)C[C@@H]2Oc3c(NS(C)(=O)=O)cccc3C(=O)N([C@@H](C)CO)C[C@H]2C)cc1 | -0.5 | /
C=C(C)C1Cc2c(ccc(C(=O)O)c2O)O1 (stereo not given) | 3.2 | -0.9
Cc1ccc(S(=O)(=O)Nc2cccc3c2O[C@@H](CN(C)CC2CC2)[C@H](C)CN([C@@H](C)CO)C3=O)cc1 | 2.9 | /
O=C(Nc1ccc(C(F)(F)F)cc1)Nc1ccc(C(F)(F)F)cc1 | 37.2 | /
Cc1noc(C)c1S(=O)(=O)N(C)C[C@H]1Oc2ccc(NC(=O)CCCN(C)C)cc2C(=O)N([C@@H](C)CO)C[C@H]1C | 2.0 | /

(cont.)
SMILES | BJeLR viability | A1 inhib
c1cc(-c2nc3ccccc3s2)nc(-c2nc3ccccc3s2)c1 | -1.9 | 0.2
CC(C)CCN(C)C1CCN(S(=O)(=O)c2cccc(Cl)c2)CC1 | 2.8 | 0.9
C[C@H]1CN([C@@H](C)CO)C(=O)c2cccc(NC(=O)c3nc4ccccc4s3)c2O[C@H]1CN(C)S(=O)(=O)c1ccc(F)cc1 | 1.9 | /
Cc1csc2ncc(C(=O)N3c4ccccc4CC3C)c(=O)n12 (stereo not given) | -1.7 | /
COc1ccc(S(=O)(=O)Nc2ccc3c(c2)C(=O)N([C@@H](C)CO)C[C@@H](C)[C@H](CN(C)Cc2ccc(-c4ccccc4)cc2)O3)cc1 | -2.0 | 0.0
Cc1ccc(CNC(=S)NN(C)C)cc1 | -6.0 | 1.0
O=C(COC(=O)C12CC3CC(CC(C3)C1)C2)c1ccc(Br)cc1 | 11.8 | -0.5
C=CCc1ccc(OCc2ccccc2)c(OC)c1 | 0.7 | -5.8
Nc1oc2c(CN3CCCCCC3)c(O)ccc2c(=O)c1-c1nc2ccccc2s1 | 1.9 | /
CN(C)CCN(C(=O)CN1C(=O)c2ccccc2C1=O)c1nc2c(F)cc(F)cc2s1 | 3.0 | 1.2
CC(C)NC(=O)N(C)C[C@@H]1Oc2c(NC(=O)c3ccc(-c4nccs4)cc3)cccc2C(=O)N([C@H](C)CO)C[C@@H]1C | -2.1 | /
N#Cc1nn(-c2ccccc2)c(=O)[nH]c1=O | 7.8 | 0.2
CCOC(=O)c1cccnc1SCC(=O)NC(C)CC (stereo not given) | 10.0 | 0.4
COc1cc(/C=C/C(=O)O[C@@H]2C[C@@](O)(C(=O)O)C[C@@H](O)[C@@H]2O)ccc1O | 3.4 | -0.1
CCNC(=S)NCC1CC1 | -1.9 | 0.1
C[C@H]1CN([C@@H](C)CO)C(=O)c2cc(NC(=O)c3ccncc3)ccc2O[C@H]1CN(C)C(=O)Nc1ccc(C(F)(F)F)cc1 | 1.4 | 0.1
COC(=O)c1c(-c2cc(OC)c(OC)c(OC)c2)c2ccnc(OCc3ncccn3)c2c(=O)n1Cc1ccnc(C)c1 | -2.3 | -0.3
O=C(CCc1ccc(O)cc1)c1ccc(O[C@@H]2O[C@H](CO)[C@H](O)[C@H](O)[C@H]2O)cc1O | 6.3 | -0.2
C[C@H](CO)N1C[C@H](C)[C@@H](CN(C)S(=O)(=O)c2ccc(Cl)cc2)Oc2c(cccc2N(C)C)C1=O | -6.0 | /
CC(C)c1nnc(NC(=O)C2c3ccccc3Oc3ccccc32)s1 | -4.3 | -0.5
COc1cccc(C(=O)NC(NCC2CCCO2)(C(F)(F)F)C(F)(F)F)c1 (stereo not given) | -1.6 | 0.0
C[C@H](CO)N1C[C@H](C)[C@@H](CN(C)Cc2ccc(C(=O)O)cc2)Oc2ccc(NC(=O)C3CCCCC3)cc2C1=O | -4.7 | -1.3
C[C@@H]1CN([C@H](C)CO)C(=O)c2cccc(NS(C)(=O)=O)c2O[C@@H]1CN(C)Cc1ccncc1 | 1.0 | /
O=C(CCS(=O)(=O)c1cccc2nonc12)N1CCCCC1 | -4.6 | /
C[C@@H]1CN([C@@H](C)CO)C(=O)c2cc(NS(C)(=O)=O)ccc2O[C@@H]1CN(C)S(=O)(=O)c1cn(C)cn1 | -2.6 | -0.3
CC(C)c1cc(NC2CCCCC2)n2c(nc3ccccc32)c1C#N | 9.4 | -1.6
COC(=O)C1=CN(C(CC(C)C)C(=O)OC)C=C(C(=O)OC)C1c1ccc(Br)cc1 (stereo not given) | 4.7 | 0.7
CCc1ccc(CNC(=O)CCc2cn(Cc3ccccc3)c3ccccc23)cc1 | -2.3 | -0.1
C[C@@H]1CN([C@@H](C)CO)C(=O)c2cccc(NC(=O)Nc3ccc(C(F)(F)F)cc3)c2O[C@@H]1CN(C)Cc1ccc(C(F)(F)F)cc1 | 4.2 | /
Cc1noc(C)c1NC(=O)Nc1ccc2c(c1)C(=O)N([C@H](C)CO)C[C@@H](C)[C@H](CN(C)S(=O)(=O)c1cccs1)O2 | -3.1 | 0.9

Quoted from the listing.
A1 inhib result of CN(C)CCN(C(=O)CN1C(=O)c2ccccc2C1=O)c1nc2c(F)cc(F)cc2s1 reads 1.2
A1 inhib result of COc1cc(/C=C/C(=O)O[C@@H]2C[C@@](O)(C(=O)O)C[C@@H](O)[C@@H]2O)ccc1O reads -0.1
BJeLR viability result of CCOC(=O)c1cccnc1SCC(=O)NC(C)CC (stereo not given) reads 10.0
BJeLR viability result of O=C(CCS(=O)(=O)c1cccc2nonc12)N1CCCCC1 reads -4.6
BJeLR viability result of CC(C)CCN(C)C1CCN(S(=O)(=O)c2cccc(Cl)c2)CC1 reads 2.8
BJeLR viability result of Cc1ccc(CNC(=S)NN(C)C)cc1 reads -6.0

Bioassay records (PubChem BioAssay)

Some of the compounds tested (hit frequency here may not be typical).
